HSD17B inh: qHTS Assay for Inhibitors of HSD17B4, hydroxysteroid (17-beta) dehydrogenase 4. 3-hydroxyacyl-CoA dehydrogenase type-2 (Homo sapiens), Q99714. recombinant HSD17B10, NADH fluorescence kinetic; many of its hits are not listed in these tables. Potency, µM (titrated, usually from 57.1 µM), inactives show at the top dose activity change, negative = inhibition, most hits filed as inhibitors. 75,000 tested, 7.6% active. AID 893, 2007; active = well fitted inhibition curve with a large enough effect; inconclusive = small, poorly fitted or top-dose-only effect; inactive = no such curve, though single readings can be large or run the other way;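 also: the protocol describes HADH2 (HSD17B10) and not the HSD17B4 of the title; nearly all actives have a fitted effect of over 70% in size; most hits overshoot -100% by far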
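Activity followed as NADH fluorescence increase (ex 360, em 450 nm) every 30 seconds for 4 min, using final 90 uM beta-hydroxybutyryl CoA and 1 mM NAD+. Recombinant His-tagged enzyme, 20 nM, pH 9.0 Tris buffer, 15 min compound preincubation.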
An asterisk follows results filed as active; ? = inconclusive; [ ] = remark or other dose. % is scaled to controls: 0 for no effect and ±100 for the full control effect; potency is read from the fitted curve at half-maximal effect.

SMILES	HSD17B inh
Cc1cnn(-c2ccc3nnc(-c4ccc(Br)cc4)n3n2)c1	?
COc1ccc(NC(=O)C(CC(=O)O)Cc2ccccc2)cc1 (stereo not drawn)	-3%
Cn1nnnc1SCC(=O)c1ccco1	15%
NS(=O)(=O)c1cc(C(=O)O)c(O)c2ccccc12	?
O=C(CN1C(=O)COc2ccccc21)c1cccc(Cl)c1	5%
CS(=O)(=O)Nc1c(O)ccc2c1CCC[C@H]2C1=NCCN1	-11%
COc1ccccc1CNC(=O)C1CCCN(S(=O)(=O)c2c(C)[nH]c(=O)[nH]c2=O)C1 (stereo not drawn)	-10%
COc1ccc(-c2ccc(-c3nnc(-c4ccncc4)o3)cc2)cc1	2%
O=C(Nc1cccnc1)Nc1ccc(F)c(Cl)c1	-6%
COC(=O)C(CC(=O)c1ccc(Br)cc1)n1ccnc1 (stereo not drawn)	25µM*
O=c1c2ccccc2nnn1CSc1nc2sc3c(c2c(=O)n1CC1CCCO1)CCC3 (stereo not drawn)	0%
COc1ccccc1CNC(=O)CCn1c(=O)[nH]c2ccsc2c1=O	10%
CCC(C)(C)n1nnnc1C(c1cccc(C#N)c1)N1CCN(c2cccc(C)c2C)CC1 (stereo not drawn)	-1%
Cc1ccc(Nc2cc(C)nc3nc(C)nn23)cc1	-1%
COc1ccc(Cc2nnc(SCC(=O)Nc3ncc(C)s3)o2)cc1	0%
Cc1cc(C(F)(F)F)c2sc(N)nc2n1	-2%
OC1CCCCC1Sc1nc2ccccc2s1 (stereo not drawn)	-6%
O=C1C(=O)N(CCCn2ccnc2)C(c2cccnc2)/C1=C(/O)c1ccc(F)cc1 (stereo not drawn)	-3%
CN(c1ccc(C(=O)Nc2cccnc2)cc1)S(C)(=O)=O	10%
CC(NC(=O)c1ccccc1Cl)C1COc2ccccc2O1 (stereo not drawn)	1%
O=C1NC(c2cccc([N+](=O)[O-])c2)=CCN1c1ccccc1O	5%
O=C1CC(N2CCOCC2)C(=O)N1c1ccccc1Cl (stereo not drawn)	-5%
O=C1NCCN1C(=O)C12CC3CC(CC(C3)C1)C2	-5%
O=c1cc(-c2ccccc2)nc2nc(SCc3ccccc3)[nH]n12	-5%
Cc1cc2nc(SCCN3CCCC3)[nH]c2cc1C	6%
CC(C)(S)[C@H](N)C(=O)O	-2%[11.4 µM]
Cn1ccc2cc(NC(=O)Nc3cccnc3)ccc21	7%
COc1ccc(Oc2ncc3ncc(=O)n(Cc4cccs4)c3n2)cc1	-5%
CCOC(=O)NC1(C(F)(F)F)NC(=O)N(C2CCCCC2)C1=O (stereo not drawn)	3%
COC(=O)c1cc(C(=O)OC)cc(-n2c(C)cc(C(=O)CC#N)c2C)c1	-2%
c1ccc(-c2cc(N3CCCCCC3)n[nH]2)cc1	?
Cc1c2c(nc3c(C)cccc13)OC(C)C2 (stereo not drawn)	-5%
c1ccc2c(c1)nc(-c1ccncc1)n1nnnc21	-14%
COc1cc(-c2nc3ccccn3c2NCC2CCCO2)ccc1O (stereo not drawn)	25µM*
COCCOC(=O)c1c(C)oc2ccc(OCc3cc(C(=O)OC)oc3C)cc12	-29%
O=C(CNc1ccc(Oc2ccccc2)cc1)N1CCOCC1	0%
O=C(Nc1cccc2ccccc12)c1ccccc1	7%[11.4 µM]
Cc1ccc(C)c(N2CCN(C(=O)COc3cc(=O)n(C)c4ccccc34)CC2)c1	3%
O=C(CS(=O)(=O)Cc1ccccc1)N1CCc2ccccc2C1	4%
CC(=O)NC1C(=O)N(CCc2ccccc2)c2ccccc21 (stereo not drawn)	7%
CC(=O)N[C@@H](CS)C(=O)O	3%
Cc1noc(C)c1COC(=O)CCCc1nc2ccccc2s1	1%
CCn1c(SCC#N)nc2c(c1=O)C1(CCCC1)Cc1ccccc1-2	?
CCOC(=O)c1ccc(NC(=O)C2C3C=CC(C3)C2C(=O)O)cc1 (stereo not drawn)	5%
O=C(CSc1nc2ccccc2c(=O)[nH]1)c1ccc(O)c(O)c1	?
COc1ccc(N2C(=O)CC(N3CCN(c4ccc(S(=O)(=O)N5CCCC5)cc4)CC3)C2=O)cc1 (stereo not drawn)	?
O=C(O)c1ccccc1NS(=O)(=O)c1ccc(Cl)c(Cl)c1	0%
Cc1noc(C)c1C(=O)N1CCC2(CCN(Cc3ccccc3)CC2)CC1	-7%
FC(F)(F)c1ccc(C2[C@H]3CN(Cc4cccnc4)[C@H](c4ccccc4)C34CC2(c2ccccc2)C4)cc1 (stereo partly drawn)	-3%
Cn1c(=O)[nH]c(=O)c2c1nc(N1CCNCC1)n2CCOc1ccccc1	7%
COc1ccc2[nH]cc(CCNc3ncnc4ccc(-c5c(C)noc5C)cc34)c2c1	12%
CCc1ccc(NC(=O)CS(=O)CC(=O)NC(C)CCc2ccco2)cc1 (stereo not drawn)	4%
O=C(CCN1CCN(c2ccccc2)CC1)Nc1nccs1	4%
CCOC(=O)c1c(C)nc2sccn12	10%
Cc1cc(NC(=O)c2ccc(Cl)cc2)no1	9%
COCc1cc(=O)[nH]c(Nc2nc(C)c3ccc(C)cc3n2)n1	11%
CCOc1ccc(-c2cc(C(=O)N3CCN(C)CC3)c3ccccc3n2)cc1	13µM*
CC1CCCN(C(=O)CSc2nnc(-c3ccc(S(=O)(=O)N4CCOCC4)cc3)n2C)C1 (stereo not drawn)	25µM*
Cc1ccc(S(=O)(=O)CCc2nc3ccccc3n2CCC#N)cc1	-1%
O=C(NCCc1ccccn1)C1CC(=O)N(Cc2ccccc2Cl)C1 (stereo not drawn)	0%
Further entries.
SMILES	HSD17B inh
CCC(C)(C)NC(=O)CN(C(=O)c1snc(C(N)=O)c1N)c1ccc2c(c1)OCO2	-5%
Cc1nc(/C=[N+](\[O-])C(C)(C)/C=N/O)n(O)c1C	-10%
C/C(=C\c1ccccc1)CN1CCN(c2ccccc2)CC1	-2%
COc1ccc(OC2C=CC(c3ccccc3)OC2CO)cc1 (stereo not drawn)	4%[11.4 µM]
O=C(c1cccc(F)c1)N1CCC2(CC1)CN(c1ncccn1)C2	32µM*
Cn1c(=O)c2[nH]c(SCc3ccccn3)nc2n(C)c1=S	5%[11.4 µM]
FC(F)C(F)(F)C1=CC(c2ccccc2)=NCCN1	-4%
CCSc1nc(-c2ccco2)ccc1C#N	0%
O=C(CN(Cc1ccc2c(c1)OCO2)C(=O)CSc1nc2ccccc2o1)NC1CCCCC1	2%
CCOC(=O)c1c(-c2ccc(C)cc2C)csc1NC(=O)CSc1nnnn1C	-8%
COc1cc(NC(=O)c2ccc3c(=O)n(Cc4ccco4)c(=S)[nH]c3c2)cc(OC)c1OC	-28%
Cc1nc2cnc(N(C)C)nc2n(C[C@H]2CCCO2)c1=O	?
CCc1nnc(NC(=O)c2ccc(N(C)S(=O)(=O)c3ccccc3)cc2)s1	-5%
CC1=C(C(=O)NCCN2CCOCC2)C2(CCC(C)CC2)OC1=O (stereo not drawn)	3%
O=C(Cn1ncc2c1-c1ccccc1OC2)N(Cc1ccco1)C1CCCCC1	-4%
CCC(CO)N=CC1=C(O)CC(C)(C)CC1=O (stereo not drawn)	5%
Cc1ccc(S(=O)(=O)Nc2cc(C)nn2-c2ccccc2)cc1	6%
O=C(Nc1ccccc1)N1CC2(CCN(S(=O)(=O)c3ccccc3)CC2)C1	2%
O=C(COC(=O)C1=COCCO1)Nc1ccccc1Oc1ccccc1	-8%
COc1ccc2[nH]c(=O)c3c(c2c1)OC(C)(C)C=C3	25µM*
COC(=O)N1[C@H](Cc2ccccc2)C=C[C@]1(C)C(=O)NCc1ccc(N(C)C)cc1	-17%
O=C(Nc1ccc(S(=O)(=O)N2CCOCC2)cc1)c1ccco1	7%
COc1ccc(C/C(O)=C(\C#N)c2nc3ccccc3s2)cc1	-10%
Cc1cccc(OCC(=O)Nc2ccc(S(=O)(=O)N3CCCC3)cc2)c1	-10%
Nn1c(SCC(=O)NC2CCCCC2)nnc1-c1ccccc1	32%[activator]
Cc1ccc(-c2c3c(=O)n(C)c(=O)n(C)c3cn2Cc2cccnc2)cc1	-26%
Cc1ccc2[nH]c(=O)c(CN(C)C(=O)c3ccccn3)cc2c1	5%
Cc1nn(-c2ccccc2)c2sc(C(=O)N3CCCCC3)cc12	-2%
Cc1cc(NC(c2cccnc2)c2ccc3cccnc3c2O)no1 (stereo not drawn)	-5%
CN1C(=O)C2(OCC(COc3ccc(Cl)cc3)O2)c2ccccc21 (stereo not drawn)	-13%
O=S(=O)(NCc1ccco1)N1CCCCCC1	12%
Cc1cccc(N2CCN(CCNC(=O)c3cc4c(s3)CS(=O)(=O)C4)CC2)c1C	0%
Cc1c(NC(=O)c2c(F)cccc2F)c(=O)n(-c2ccccc2)n1C	7%
CS/C(=N\S(=O)(=O)c1cccs1)NC(=O)CSc1nc2ccccc2s1	4µM*
Cc1cc(C)cc(N)c1	-3%
COc1ccccc1N1CCN(c2ccc(-c3ccccc3)nn2)CC1	-5%
[N-]=[N+]=CC(=O)COC(=O)c1ccccc1	5%[11.4 µM]
CCC(CC)C(=O)Nc1c2c(nn1-c1ccc(OC)cc1)CS(=O)(=O)C2	1%
COc1ccccc1CNC(=O)c1ccc(S(=O)(=O)N2CCCC2)cc1	-1%
COc1ccc(C(=O)OCC(=O)c2cc(OC)ccc2OC)c(OC)c1	-3%
C=C(C)COc1ccc(-c2n[nH]c(C)c2-c2ccccc2OC)c(O)c1	-13%
CCOC(=O)N1CCC(Nc2c(NCCN3CCN(c4cccc(Cl)c4)CC3)c(=O)c2=O)CC1	8%
CCOC(=O)c1cnc(SCC(=O)Nc2cc(C(F)(F)F)ccc2N2CCOCC2)nc1N	-4%
COc1ccc(C(=O)C2C3C4COC(O4)C(=O)C3C3C=Cc4ccccc4N32)c(OC)c1 (stereo not drawn)	?
CCC(C)C(NC(=O)OC(C)(C)C)C(=O)NC(C(=O)N1CCCC1C(N)=O)C(C)CC (stereo not drawn)	-3%
Cc1cc(NC(=O)C2(c3ccccc3)CCCC2)no1	3%
COC(=O)c1ccc(Cl)c(NC(=O)CN2CCN(Cc3ccccc3)CC2)c1	6%
N#CC1=C(N)Oc2n[nH]c(CSc3ccccc3)c2C12C(=O)Nc1ccccc12 (stereo not drawn)	-5%
CN1CCN(C(=O)c2ccc3c(=O)n(Cc4ccc(Cl)cc4)c(=S)[nH]c3c2)CC1	?
COc1ccccc1CNC(=O)CCN1C(=O)COc2ccccc21	10%
CCCCOC(=O)C1=C(C)Nc2ncnn2C1c1ccc(OCC)c(OC)c1 (stereo not drawn)	0%
C[C@@H](CN1CCC(Cc2ccccc2)CC1)[C@H](O)c1ccc(O)cc1	-3%
CCCCCC1CC(=O)N(Cc2ccccc2)C(=O)N1 (stereo not drawn)	5%
CCCCNC(=O)C(c1ccc(OCC(=O)OC)c(C(=O)OC)c1)N(CCc1ccccc1)C(=O)CCCCCN1C(=O)NC(c2ccc(-c3ccccc3)cc2)C(C(=O)OCc2ccccc2)=C1C (stereo not drawn)	-1%
O=C(Nc1ccc(Cl)cc1)C(c1ccccc1)N(CCO)CCO (stereo not drawn)	2%
Cc1ccc(C(=O)COC(=O)c2cnccn2)cc1	10%
Fc1c(F)c(F)c(CSc2nc3ccccc3[nH]2)c(F)c1F	7%
Cc1ccc(CNC(=O)[C@H](C)[C@H]2C[C@]2(C)[C@H](NC(=O)OCc2ccccc2)c2ccccc2)c(F)c1F	14%
Cc1nc(CCNC(=O)Cc2ccccc2)cs1	3%
Cc1cc(-c2ccco2)n(-c2ccccc2)n1	-7%
(next part)
SMILES	HSD17B inh
COc1cc2c(cc1OC)C(c1ccc(N(C)C)cc1)CC(=O)N2 (stereo not drawn)	5%
CCOC(=O)CSc1nnc(Cc2ccccc2)n1CC1CCCO1 (stereo not drawn)	-6%
O=C(CN1CCN(CC(=O)c2ccc(F)cc2)CC1)Nc1ccccc1Cl	?
Cn1c(=O)c2c(SCC(=O)N3CCC(Cc4ccccc4)CC3)nc(C3CC3)nc2n(C)c1=O	4%
O=C(C1CCC1)N1CCc2cc(S(=O)(=O)N3CCN(c4ccccn4)CC3)ccc21	?
CCOc1ccc(N=Cc2c(O)cc(C)oc2=O)cc1	-7%
CCC(C)C1C(C#N)=C(N)Oc2n[nH]c(-c3ccccc3)c21 (stereo not drawn)	-2%

An excerpt from above in order of length of the SMILES, high to low.
SMILES	HSD17B inh
CCCCNC(=O)C(c1ccc(OCC(=O)OC)c(C(=O)OC)c1)N(CCc1ccccc1)C(=O)CCCCCN1C(=O)NC(c2ccc(-c3ccccc3)cc2)C(C(=O)OCc2ccccc2)=C1C (stereo not drawn)	-1%
Cc1ccc(CNC(=O)[C@H](C)[C@H]2C[C@]2(C)[C@H](NC(=O)OCc2ccccc2)c2ccccc2)c(F)c1F	14%
Cn1c(=O)c2c(SCC(=O)N3CCC(Cc4ccccc4)CC3)nc(C3CC3)nc2n(C)c1=O	4%
CN1CCN(C(=O)c2ccc3c(=O)n(Cc4ccc(Cl)cc4)c(=S)[nH]c3c2)CC1	?
O=C(C1CCC1)N1CCc2cc(S(=O)(=O)N3CCN(c4ccccn4)CC3)ccc21	?
C[C@@H](CN1CCC(Cc2ccccc2)CC1)[C@H](O)c1ccc(O)cc1	-3%
O=C(CN1CCN(CC(=O)c2ccc(F)cc2)CC1)Nc1ccccc1Cl	?
CCC(C)C1C(C#N)=C(N)Oc2n[nH]c(-c3ccccc3)c21 (stereo not drawn)	-2%
Fc1c(F)c(F)c(CSc2nc3ccccc3[nH]2)c(F)c1F	7%
O=C(Nc1ccc(Cl)cc1)C(c1ccccc1)N(CCO)CCO (stereo not drawn)	2%
COc1ccccc1CNC(=O)CCN1C(=O)COc2ccccc21	10%
CCOC(=O)CSc1nnc(Cc2ccccc2)n1CC1CCCO1 (stereo not drawn)	-6%
CCCCCC1CC(=O)N(Cc2ccccc2)C(=O)N1 (stereo not drawn)	5%
Cc1ccc(C(=O)COC(=O)c2cnccn2)cc1	10%
Cc1cc(-c2ccco2)n(-c2ccccc2)n1	-7%
Cc1nc(CCNC(=O)Cc2ccccc2)cs1	3%

Some of the compounds tested; rates above refer to the full screens.
